ClpP mod = qHTS Assay for Activators of ClpP | 340,000 tested, 1.9% active | Potency, µM (highest dose often 57.5 µM), for inactives: at the highest dose activity change, negative = active | AID 651965, 2013 | ATP-dependent Clp protease proteolytic subunit (Bacillus subtilis (strain 168)), P80244 | purified B. subtilis ClpP, FRET peptide cleavage, 20 min; active = well fitted falling curve with a large enough effect; inconclusive = small, poorly fitted or top-dose-only effect; inactive = no such curve, though single readings can be large or run the other way; note: potency is the fitted concentration of half-maximal effect; the source files actives as falling curves though it sought activators and does not explain the sign; nearly all actives have a fitted effect of over 65% in size; many hits overshoot -100%
Target sequence (P80244 whole entry, looked up): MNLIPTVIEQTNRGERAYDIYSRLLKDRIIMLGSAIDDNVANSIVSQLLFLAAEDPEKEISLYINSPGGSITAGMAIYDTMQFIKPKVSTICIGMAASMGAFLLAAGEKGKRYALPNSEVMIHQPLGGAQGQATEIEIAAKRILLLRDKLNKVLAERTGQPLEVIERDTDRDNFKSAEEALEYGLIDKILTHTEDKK
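Purified B. subtilis ClpP, 10 microg/mL final in Tris/HCl pH8 with KCl, BSA, glycerol and Tween-20, cleaved an Abz/nitrotyrosine-quenched decapeptide. Fluorescence (ex 320, em 430) was read at 0 and 20 min at room temperature. Delta was normalized to 5.8 microM ADEP and DMSO/no-enzyme controls.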
TRPV1 PAM = human TRPV1 potentiation; potentiation, % at 8.33 µM; 320,000 tested, 0.02% active; Q8NER1; TRPV1-expressing cells, Fluo-8 calcium influx, capsaicin EC20 potentiation; host cell line not named in the record; control for the full effect not named in the record; AID 540277; active means potentiation above 80%; inconclusive means 30% to 80%; inactive means below 30%; note: 0% is about no effect
Target sequence (Q8NER1 whole entry, looked up): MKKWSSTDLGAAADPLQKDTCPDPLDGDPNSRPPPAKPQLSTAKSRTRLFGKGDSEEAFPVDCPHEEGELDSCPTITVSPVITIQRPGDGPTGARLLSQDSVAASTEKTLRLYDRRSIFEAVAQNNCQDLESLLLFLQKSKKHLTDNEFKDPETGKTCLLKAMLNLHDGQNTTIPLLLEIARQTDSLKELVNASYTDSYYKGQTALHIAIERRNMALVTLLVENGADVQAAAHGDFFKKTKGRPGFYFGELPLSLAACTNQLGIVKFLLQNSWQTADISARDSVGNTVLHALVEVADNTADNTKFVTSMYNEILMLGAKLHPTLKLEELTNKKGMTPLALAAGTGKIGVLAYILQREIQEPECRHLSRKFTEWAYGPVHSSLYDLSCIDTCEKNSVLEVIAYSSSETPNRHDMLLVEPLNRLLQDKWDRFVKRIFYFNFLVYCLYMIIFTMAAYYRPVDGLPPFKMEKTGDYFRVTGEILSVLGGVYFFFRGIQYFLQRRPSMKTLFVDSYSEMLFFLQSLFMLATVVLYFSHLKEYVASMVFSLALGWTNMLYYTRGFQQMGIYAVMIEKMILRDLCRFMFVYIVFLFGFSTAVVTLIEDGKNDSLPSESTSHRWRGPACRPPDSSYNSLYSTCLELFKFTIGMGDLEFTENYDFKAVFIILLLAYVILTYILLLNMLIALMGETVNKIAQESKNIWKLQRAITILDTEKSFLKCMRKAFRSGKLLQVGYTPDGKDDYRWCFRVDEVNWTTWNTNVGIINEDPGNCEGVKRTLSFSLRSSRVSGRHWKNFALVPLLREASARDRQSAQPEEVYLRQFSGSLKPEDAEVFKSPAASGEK
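Fluo-8 calcium influx in TRPV1-expressing cells, kinetic read (ex 480/em 520 nm). Compound added and read 3 min for agonist activity, followed by capsaicin at EC20 final and 2 min further read for enhancement.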
Menin MLL FP FL = menin-MLL binding inhibition, fluorescein peptide; FP activity change, % at 61.4 µM; Fluorescence polarization, fluorescein-MLL peptide displacement from menin; 290,000 tested, under 10 active; inconclusive = falling polarisation curve, or a change in total fluorescence; inactive = total fluorescence flat and polarisation flat or rising; no compound was filed as active; the % refers to the polarisation; negative = inhibition;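 note: % of control where 0% means no effect; inhibitors lower the polarisation; unlabelled MLL peptide was the positive control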
CtBP-E1A blk = blocks the CtBP interaction with E1A. 340,000 tested, 0.49% active. AlphaScreen GST-E1A/His-CtBP binding, 1536-well; stronger effect = lower value; control for the full effect not named in the record. activity change, % (concentration not given with the values); in the data active means activity change below about -65%; inconclusive means about -30% to -65%; inactive means above about -30%; note: % is set by controls: 0 for no effect and ±100 for the full control effect
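Steps: dispense buffer (Tris pH 8.0, NaCl 300 mM, TCEP 1 mM, BSA, Tween 20); add 5X protein mix (GST-E1A, His-CtBP, 125 nM each); pin 23 nL compound; 2 h at 37 °C, dark; add 5X beads (50 ug/mL); 1 h; read.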
gsp ag = activates gsp, the McCune-Albright syndrome mutation; gsp mutant cells, cAMP HTRF, 30 min; control for the full effect not named in the record; Potency, µM (doses to about 76.9 µM), for inactives: at the top dose activation (cAMP increase), actives largely listed as activators; 340,000 tested, 0.13% active; active = well fitted activation curve with a large enough effect; inconclusive = small, poorly fitted or top-dose-only effect, or another doubt; inactive = no such curve, though single readings can be large or run the other way; cell line not stated here;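 note: phosphodiesterase inhibitor Ro 20-1724 added with compounds to block cAMP breakdown; potency is the fitted concentration of half-maximal effect; nearly all actives have a fitted effect of over 60% in size; about a fifth of the inactives were tested at one dose only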
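Cells in DMEM/10% FBS with G418 were pretreated with compounds in DMSO plus […] (300 uM stock) for 30 min at 37C. cAMP was measured by HTRF (cAMP-d2 plus anti-cAMP antibody-K) after 30 min at room temperature.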
gsp antag = gsp mutant antagonism. gsp-mutant cells, cAMP HTRF, 30 min; control for the full effect not named in the record. Potency, µM (titrated, usually from 76.9 µM), for the others: top-dose activity change, negative = inhibition, usual class: inhibitors. 340,000 tested, 0.4% active; active = falling curve of any shape with a large fitted effect; inconclusive = falling curve, mostly with a smaller effect; inactive = flat or rising curve; cell line not stated here;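 note: intracellular cAMP measured with PDE inhibitor Ro 20-1724 present during compound exposure; potency is the fitted concentration of half-maximal effect; % is set by controls: 0 for no effect and ±100 for the full control effect; nearly all actives have a fitted effect of over 65% in size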
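Cells in G418 medium, seeded 16-24 h, 37C; buffer exchange to DPBS + 1 mM CaCl2, 0.5 mM MgCl2, 0.05% BSA; cpds in DMSO + […] (300 uM stock), 30 min 37C; HTRF cAMP detection.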
Sfp PPTase inh = Sfp phosphopantetheinyl transferase inhibition | Q9F4F7 | Biochemical Sfp PPTase activity, qHTS | Potency, µM, for the others: max response, negative = inhibition, most hits filed as inhibitors | 310,000 tested, 3.5% active; active = well fitted inhibition curve with a large enough effect; inconclusive = small, poorly fitted or top-dose-only effect, or another doubt; inactive = no such curve, though single readings can be large or run the other way;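 note: the enzyme is Sfp with the accession as filed and its product quenches rhodamine fluorescence; potency is the fitted concentration of half-maximal effect; 0% = enzyme reaction without inhibitor and -100% = no enzyme wells; top concentration of the series not given in the record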
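With Hepes-Na pH 7.6 buffer containing 10 mM MgCl2, Sfp (15 nM) modified BHQ-2-YbbR (12.5 uM) using rhodamine-CoA (5 uM). Two reads 30 minutes apart at 525/598 nm yielded each well's rate.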
* = called active by the depositor; [ ] = another dose, or the depositor's remark.

Results for CC(=O)Nc1ccc(S(=O)(=O)NCC(=O)OCC(=O)NC(=O)C2CCCCC2)cc1 ?
ClpP mod: -2.6%; TRPV1 PAM: 6; Menin MLL FP FL: 3.1; CtBP-E1A blk: 1; gsp ag: -30%[inhibitor]; gsp antag: -11%; Sfp PPTase inh: 9%

Results for CCN(CC)c1ccc(/C=N/N2CCOCC2)cc1 ?
ClpP mod: -3.9%; TRPV1 PAM: 1; Menin MLL FP FL: 2.3; CtBP-E1A blk: -15; gsp ag: -9%; gsp antag: -16%; Sfp PPTase inh: 0%

How did O=C(Oc1ccc(N2C(=O)CCC2=O)cc1)c1ccco1 do in these assays?
ClpP mod: -1.8%; TRPV1 PAM: -3; Menin MLL FP FL: 6.1; CtBP-E1A blk: 2; gsp ag: 3%; gsp antag: 5%; Sfp PPTase inh: 10%

How did CCn1c(SCC(=O)N2CCc3ccccc32)nnc1-c1ccco1 do in these assays?
ClpP mod: 0.6%; TRPV1 PAM: 5; Menin MLL FP FL: -0.1; CtBP-E1A blk: -2; gsp ag: -1%; gsp antag: 3%; Sfp PPTase inh: 5%

Results for CCCCn1c(SCC(=O)Nc2cc(C)on2)nnc1-c1cccs1 ?
ClpP mod: -2.0%; TRPV1 PAM: 8; Menin MLL FP FL: 3.7; gsp ag: 0%; gsp antag: -5%; Sfp PPTase inh: 6%

What do the screens show for `CCN(c1ccc(NC(=O)COC(=O)c2ccc3ccccc3n2)cc1)C(C)C`?
ClpP mod: 3.3%; TRPV1 PAM: 0; Menin MLL FP FL: 2.7; CtBP-E1A blk: inconclusive; gsp ag: -27%; gsp antag: -8%; Sfp PPTase inh: 3%

How did COC(=O)c1c(-c2ccc(C)cc2)csc1NC(=S)NC(=O)c1ccc(F)cc1 do in these assays?
ClpP mod: -2.8%; TRPV1 PAM: 5; Menin MLL FP FL: 0.8; CtBP-E1A blk: -9; gsp ag: -22%; gsp antag: 2%; Sfp PPTase inh: -27%

How did Cc1ccccc1Nc1nc(N)nc(CSc2ccccc2)n1 do in these assays?
TRPV1 PAM: 1; Menin MLL FP FL: 2.7; CtBP-E1A blk: 0; gsp ag: inconclusive; gsp antag: 4%; Sfp PPTase inh: 25%

How did Nc1ccc(-n2nncc2-c2ccccc2)cc1 do in these assays?
ClpP mod: 0.9%; TRPV1 PAM: -9; Menin MLL FP FL: 0.4; CtBP-E1A blk: -1; gsp ag: -17%; gsp antag: -4%; Sfp PPTase inh: 3%

How did NC(=O)c1oc2ccccc2c1NC(=O)CCc1ccccc1 do in these assays?
ClpP mod: -18%; TRPV1 PAM: inconclusive; Menin MLL FP FL: -0.4; CtBP-E1A blk: 5; gsp ag: -6%; gsp antag: -2%; Sfp PPTase inh: 15%

Results for CCC(=O)Nc1nc2ccc([N+](=O)[O-])cc2s1 ?
TRPV1 PAM: 4; Menin MLL FP FL: 1.8; CtBP-E1A blk: 6; gsp ag: inconclusive; gsp antag: 0%; Sfp PPTase inh: 24%

How did CN(C)S(=O)(=O)c1cccc(NC(=O)COC(=O)/C=C/c2cccs2)c1 do in these assays?
TRPV1 PAM: 4; Menin MLL FP FL: -2.7; CtBP-E1A blk: -8; gsp ag: -27%; gsp antag: -22%; Sfp PPTase inh: -1%

What do the screens show for `CCCCNC(=O)c1nn(-c2ccccc2OC)c(=O)c2ccccc12`?
ClpP mod: -6.5%; TRPV1 PAM: 9; Menin MLL FP FL: 1.4; CtBP-E1A blk: -8; gsp ag: -14%; gsp antag: 8%; Sfp PPTase inh: 9%

How did O=C(NCC1CCCO1)c1ccc(Br)c(S(=O)(=O)N2CCOCC2)c1 (stereo not drawn) do in these assays?
ClpP mod: 0.6%; TRPV1 PAM: 12; CtBP-E1A blk: 12; gsp ag: -4%; gsp antag: 10%

What do the screens show for `O=C(Nc1ccc(Cc2ccncc2)cc1)c1ccc([N+](=O)[O-])o1`?
TRPV1 PAM: -1; Menin MLL FP FL: -4.4; CtBP-E1A blk: -15; gsp ag: -63%[inhibitor]; gsp antag: -5%; Sfp PPTase inh: 10%

What do the screens show for `Cc1ccc(-c2nnc(SCC(=O)N3c4ccccc4NC(=O)C3(C)C)n2N)cc1`?
ClpP mod: -0.6%; Menin MLL FP FL: 5.2; CtBP-E1A blk: 2; gsp ag: 5%; gsp antag: -22%; Sfp PPTase inh: -12%

What do the screens show for `O=C(NCC(=O)N1CC=C(c2ccccc2)CC1)c1ccccc1Br`?
ClpP mod: 1.1%; TRPV1 PAM: 19; CtBP-E1A blk: -1; gsp ag: -11%[15.4 µM]; gsp antag: -4%; Sfp PPTase inh: 8%

Results for COc1ccc(NC(=O)COc2ccccc2C(N)=O)cc1S(=O)(=O)N1CCCCC1 ?
ClpP mod: -1.2%; CtBP-E1A blk: -2; gsp ag: -1%

How did CCOC(=O)Cn1c(=NC(=O)c2nc3ccccc3s2)sc2cc(S(N)(=O)=O)ccc21 do in these assays?
ClpP mod: 32µM*; TRPV1 PAM: 1; Menin MLL FP FL: 4.7; CtBP-E1A blk: -13; gsp ag: -4%[15.4 µM]; gsp antag: 10µM*; Sfp PPTase inh: 12%

What do the screens show for `CC(C)C1C(C#N)=C(N)SC(N)=C1C#N`?
ClpP mod: -4.1%; TRPV1 PAM: inconclusive; Menin MLL FP FL: -0.9; CtBP-E1A blk: -6; gsp ag: 27%; gsp antag: -10%; Sfp PPTase inh: inconclusive

How did CCOC(=O)c1cc(C(=O)Nc2cccc(C)c2)nn1C do in these assays?
ClpP mod: -6.4%; TRPV1 PAM: 1; Menin MLL FP FL: -1.8; CtBP-E1A blk: -12; gsp ag: 5%; gsp antag: 0%; Sfp PPTase inh: 5%

Results for COc1ccc(C(=O)Nc2cc(C(=O)O)cc(C(=O)O)c2)cc1Cl ?
ClpP mod: 1.5%; TRPV1 PAM: -4; Menin MLL FP FL: 0.4; gsp ag: -4%; gsp antag: 10%; Sfp PPTase inh: 28%

How did O=C(O)CN1C(=O)/C(=C\c2cccc(OCc3ccccc3F)c2)SC1=S do in these assays?
TRPV1 PAM: 13; Menin MLL FP FL: 6.8; CtBP-E1A blk: 0; gsp ag: -9%; gsp antag: -23%; Sfp PPTase inh: 10%

How did CC(=O)c1cccc(CN2CCC(n3nccc3NC(=O)CCCc3ccccc3)CC2)c1 do in these assays?
ClpP mod: 1.6%; TRPV1 PAM: 5; Menin MLL FP FL: -4.3; CtBP-E1A blk: 9; gsp ag: -21%; gsp antag: -1%; Sfp PPTase inh: 28%

What do the screens show for `CC(=O)NCCc1ccc(S(=O)(=O)NCc2ccc3c(c2)OCO3)cc1`?
ClpP mod: -1.4%; TRPV1 PAM: 1; Menin MLL FP FL: -2.4; CtBP-E1A blk: 2; gsp ag: 1%; gsp antag: 8%; Sfp PPTase inh: 7%

What do the screens show for `CC(C)(C)N/N=C1\CC(c2ccccc2)Oc2ccccc21` (stereo not drawn)?
ClpP mod: -5.3%; TRPV1 PAM: 29; Menin MLL FP FL: 7.2; CtBP-E1A blk: 11; gsp ag: 4%; gsp antag: -1%; Sfp PPTase inh: 8%

What do the screens show for `CCOC(=O)c1c(CN(C)C)oc2cc(CN(C)C)c(O)c(CSc3ccccc3)c12`?
ClpP mod: 2.4%; TRPV1 PAM: 2; Menin MLL FP FL: 5.0; CtBP-E1A blk: -20; gsp ag: -16%; gsp antag: 5%; Sfp PPTase inh: -29%

What do the screens show for `COc1ccc(S(=O)(=O)N2CCOCC2)cc1NC(=O)CSc1cc(C)ccc1C`?
ClpP mod: -6.6%; TRPV1 PAM: -8; CtBP-E1A blk: -8; gsp ag: 9%[15.4 µM]; gsp antag: 4%

How did Cc1ccc(-n2nnnc2-c2cnc3cc4c(cc3c2C)OCO4)cc1 do in these assays?
ClpP mod: inconclusive; TRPV1 PAM: 2; Menin MLL FP FL: 4.2; CtBP-E1A blk: -3; gsp ag: 7%; gsp antag: inconclusive; Sfp PPTase inh: 6%

What do the screens show for `CCN(CC)S(=O)(=O)c1ccc(NC(=O)COc2cccc(-n3cnnn3)c2)cc1`?
CtBP-E1A blk: -2; gsp ag: 20%; gsp antag: 4%

Results for C#CCN1C(=O)C(O)(CC(=O)c2cc(OC)ccc2OC)c2ccccc21 (stereo not drawn) ?
ClpP mod: -4.4%; TRPV1 PAM: 6; Menin MLL FP FL: 0.7; CtBP-E1A blk: 6; gsp ag: 8%; gsp antag: 11%; Sfp PPTase inh: 8%

How did CC1CCCCN1C(=O)COC(=O)CSc1ccc(C(N)=O)cc1[N+](=O)[O-] (stereo not drawn) do in these assays?
CtBP-E1A blk: 3; gsp ag: 4%[15.4 µM]; gsp antag: -12%

Results for CCc1cc(C(=O)N/N=C/c2ccc(O)cc2)c2ccccc2n1 ?
TRPV1 PAM: 23; Menin MLL FP FL: 0.7; CtBP-E1A blk: -28; gsp ag: -43%[inhibitor]; gsp antag: -2%; Sfp PPTase inh: 18%

Results for COc1cccc(C2=CC(=O)C[C@H](c3ccc(F)cc3)C2)c1OC ?
ClpP mod: -5.5%; TRPV1 PAM: 1; CtBP-E1A blk: -11; gsp ag: inconclusive; gsp antag: -6%

Results for Nc1nonc1-n1nnc(C(=O)N/N=C/c2cccnc2)c1CSc1ccc(Cl)cc1 ?
ClpP mod: 1.0%; TRPV1 PAM: 7; Menin MLL FP FL: -1.9; CtBP-E1A blk: 1; gsp ag: -7%; gsp antag: 35µM*; Sfp PPTase inh: 7%

What do the screens show for `N=c1c2c(n(Cc3ccccc3)c3c1CCC3)CCC2`?
ClpP mod: -1.8%; TRPV1 PAM: -4; Menin MLL FP FL: -1.5; CtBP-E1A blk: -2; gsp ag: -56%[inhibitor]; gsp antag: -11%; Sfp PPTase inh: -7%

How did Cc1cc(NC(=O)CS(=O)(=O)c2cn(Cc3ccccc3Cl)c3ccccc23)no1 do in these assays?
ClpP mod: -1.6%; TRPV1 PAM: 14; Menin MLL FP FL: 6.2; CtBP-E1A blk: 0; gsp ag: -55%[inhibitor]; gsp antag: -14%; Sfp PPTase inh: 5%

How did O=C(c1cccc(S(=O)(=O)N2CCCCCC2)c1)N1CCN(c2ccccc2F)CC1 do in these assays?
ClpP mod: -3.1%; TRPV1 PAM: -10; CtBP-E1A blk: -17; gsp ag: 1%[15.4 µM]; gsp antag: -12%; Sfp PPTase inh: -7%
